RE007 growth inh: less growth of the S. pombe RE007 Vpr strain. S. pombe RE007 Vpr strain, BacTiter-Glo ATP luminescence, 24 h; control for the full effect not named in the record. Potency, µM (highest dose often 92.2 µM), for inactives: top-dose activity change, negative = less growth. actives 0.21% (n = 360,000). AID 651644; active = well fitted falling curve with a large enough effect; inconclusive = small, poorly fitted or top-dose-only effect; inactive = no such curve, though single readings can be large or run the other way;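 also: % is scaled to controls: 0 for no effect and ±100 for the full control effect; nearly all actives have a fitted effect of over 50% in size; the assay follows cell death caused by Vpr and the record does not say whether a fall means rescue or toxicity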
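Fission yeast strain RE007, carrying one chromosomally integrated HIV-1 vpr copy, was seeded at OD 0.01 in PMG+AL medium with 23 nL pinned compound. After 24 h at 30 °C and 99% humidity, viability was read by BacTiter-Glo luminescence.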
2A StopGo: FMDV 2A StopGo reporter, luciferase signal; human cells with a luciferase reporter of 2A StopGo recoding; control for the full effect not named in the record; Potency, µM (doses to about 57.9 µM), inactives show at the highest dose signal change, negative = less light; actives 1.2% (n = 410,000); AID 1159524; active = well fitted falling curve with a large enough effect; inconclusive = small, poorly fitted or top-dose-only effect; inactive = no such curve, though single readings can be large or run the other way; tested in HEK293T cells; also: % is scaled to controls: 0 for no effect and ±100 for the full control effect; nearly all actives have a fitted effect of over 45% in size; luciferase light after 4 h
NS1 function inh: blocks influenza NS1 protein function | S. cerevisiae slowed by influenza A NS1, growth recovery by OD600 | Potency, µM (highest dose often 46.1 µM), for inactives: top-dose activity, positive = more growth | actives 0.4% (n = 270,000); also: actives are rising curves; nearly all actives have a fitted effect of over 50% in size
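A cell-based growth assay was used: compounds that relieve NS1-induced slow growth of budding yeast raise OD600. Assay medium was yeast nitrogen base with ammonium sulphate and -URA supplement, pH 6.0, with 2% galactose.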
Marburg entry inh: Marburg virus entry inhibition; Marburg virus pseudotyped entry inhibition, cell reporter; control for the full effect not named in the record; about a third of the inactives were read at about 46 µM; Potency, µM (titrated, usually from 37.8 µM), inactives show at the top dose activity change, negative = inhibition, usual class: inhibitors; actives 1.8% (n = 300,000); AID 540276; active = well fitted inhibition curve with a large enough effect; inconclusive = small, poorly fitted or top-dose-only effect, or effect the other way; inactive = flat fitted curve, though single readings scatter; tested in HEK293 cells; about a fifth of its hits are not listed in these tables; also: % is scaled to controls: 0 for no effect and ±100 for the full control effect; luciferase read-out
Cruzain Triton: inhibitors of Trypanosoma cruzi cruzain with detergent; purified cruzain, Z-FR-AMC fluorescence, 0.01% Triton; Potency, µM, without a hit: max response, negative = inhibition, most hits filed as inhibitors; actives 0.43% (n = 200,000); AID 1478; active = well fitted curve in the direction sought with a large enough effect; inconclusive = small, poorly fitted or top-dose-only effect, or another doubt; inactive = no such curve, though single readings can be large; an effect the other way counts as inactive or inconclusive;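 also: plate controls were neutral wells for no effect and buffer without enzyme for full effect; nearly all actives have a fitted effect of over 40% in size; top concentration of the series not given in the record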
Target sequence (P25779 123-467 limits assumed): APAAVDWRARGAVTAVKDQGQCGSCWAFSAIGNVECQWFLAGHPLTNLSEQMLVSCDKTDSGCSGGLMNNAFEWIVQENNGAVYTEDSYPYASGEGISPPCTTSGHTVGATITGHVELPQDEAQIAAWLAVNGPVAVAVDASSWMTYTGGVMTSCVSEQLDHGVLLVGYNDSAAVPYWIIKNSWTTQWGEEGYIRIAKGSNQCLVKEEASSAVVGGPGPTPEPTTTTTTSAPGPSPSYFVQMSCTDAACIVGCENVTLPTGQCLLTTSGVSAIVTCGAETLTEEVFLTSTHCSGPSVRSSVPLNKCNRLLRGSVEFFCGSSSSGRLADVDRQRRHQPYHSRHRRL
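In this qHTS format, compounds are incubated with 1.5 nM cruzain for 15 min at room temperature before 2 uM Z-FR-AMC is added. Release of AMC is followed at 360/450 nm, and progress is taken as the 60 s fluorescence difference.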
Cruzain noTriton: inhibitors of Trypanosoma cruzi cruzain without detergent. P25779. purified cruzain, Z-FR-AMC fluorescence, no detergent. Potency, µM, without a hit: max response, negative = inhibition, usual class: inhibitors. actives 2.3% (n = 200,000); active = well fitted curve in the direction sought with a large enough effect; inconclusive = small, poorly fitted or top-dose-only effect, or another doubt; inactive = no such curve, though single readings can be large; an effect the other way counts as inactive or inconclusive;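 also: plate controls were enzyme without inhibitor for no effect and buffer without enzyme for full effect; nearly all actives have a fitted effect of over 40% in size; top concentration of the series not given in the record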
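Detergent-free condition (0.00005% Triton X-100) in acetate buffer pH 5.5 with DTT. 1.5 nM enzyme and compound were pre-mixed 15 min, then 2 uM Z-FR-AMC substrate added; reaction progress from fluorescence change between first and third reads (60 s).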
Lassa entry inh: inhibitors of Lassa virus binding or cell entry | Lassa virus pseudotype entry inhibition, cell reporter; control for the full effect not named in the record | Potency, µM (series often up to 37.9 µM), for inactives: at the top dose activity change, negative = inhibition, actives largely listed as inhibitors | actives 1.2% (n = 300,000); active means well fitted inhibition curve with a large enough effect; inconclusive means small, poorly fitted or top-dose-only effect, or effect the other way; inactive means flat fitted curve, though single readings scatter; tested in HEK293 cells; also: % is scaled to controls: 0 for no effect and ±100 for the full control effect; nearly all actives have a fitted effect of over 50% in size; luciferase read-out
SARS PLP yeast: inhibitors of SARS-CoV papain-like protease in yeast. actives 0.19% (n = 330,000). S. cerevisiae expressing SARS-CoV PLpro, growth rescue; control for the full effect not named in the record. Potency, µM (doses to about 32.9 µM), for inactives: at the top dose activity, positive = growth rescue; also: 0% is about no effect; nearly all actives have a fitted effect of over 55% in size; growth read by luminescence after 48 h
An asterisk follows results filed as active; ? = inconclusive; . = no result given; & = joins results of further samples; [ ] = dose if it differs, or a comment. Unless noted, calls follow the shape of the dose curve; as a rule, active means well fitted rising curve with a large enough effect; inconclusive means small, poorly fitted or top-dose-only effect; inactive means no such curve, though single readings can be large or run the other way. Potency is read from the fitted curve at half-maximal effect.

SMILES	RE007 growth inh	2A StopGo	NS1 function inh	Marburg entry inh	Cruzain Triton	Cruzain noTriton	Lassa entry inh	SARS PLP yeast
Cc1ccc(C2C(=O)c3ccccc3C2=O)cc1	16%	13%	0%	17%	.	.	22%	1%
Cc1ccc(C(=O)CSc2nnc(-c3ccccc3)n2-c2ccccc2)cc1	.	-9%	.	6%[46.1 µM]	1.4%	?	-2%[46.1 µM]	.
COc1ccc2c(c1)CCN=C2Cc1ccc(OC)c(OC)c1	-21%	-24%	7%	?	-3.3%	5%	0%	9%
COc1ccc(C2=Nc3cccc4cccc(c34)N2)cc1	-17%	.	3.5µM*	21%	-3.5%	3.2µM*	7%	3%
COC(=O)c1sccc1S(=O)(=O)N1CCN(c2cc(Cl)ccc2C)CC1	.	-17%	.	.	-7.3%	-5%	-11%[46.1 µM]	.
CC(C)OCCCNCC(O)c1ccccc1 (stereo not given)	27%	-11%	2%	?	-3.5%	9%	12%	-2%
Cc1[nH]nc2c1C(c1ccc(N(C)C)cc1)C1=C(CC(C)(C)CC1=O)N2 (stereo not given)	-11%	-18%	9%	-8%[46.1 µM]	.	.	-6%[46.1 µM]	0%
CCC(Cc1ccccc1)NC(=O)c1ccc2nc(N3CCC(C)CC3)sc2c1 (stereo not given)	.	?	.	?	-2.2%	1%	24%[46.1 µM]	.
Cc1ccc(S(=O)(=O)CC#CCOC(=O)c2ccc([N+](=O)[O-])cc2)cc1	.	.	-141%	-3%	14µM*	13µM*	.	-14%
O=C(CNc1ccc(Br)cc1)c1ccccc1	-13%	50%[activator]	-21%	3%	2.4%	?	28%	1%
Cc1oc(-c2ccccc2Cl)nc1CS(=O)CC(=O)NCc1ccc2c(c1)OCO2 (stereo not given)	-4%	13%	4%	.	.	.	.	4%
Cc1cc(C)nc(/N=C(\N)Nc2cc([N+](=O)[O-])ccc2C)n1	1%	0%	5%	-18%	2.3%	3%	?	2%
COC(=O)c1c(NC(=S)NC(=O)c2ccco2)sc2c1CCCC2	2%	2%	-2%	15%	-4.1%	0%	28%	-11%
Cc1cc(C)nc(NCCCc2ccccc2)n1	17%	.	-11%	-6%	-0.7%	-8%	-2%	5%
COc1ccccc1-n1c(C)c(C(C)=O)c2cc(O)ccc21	11%	?	-7%	?	.	.	?	0%
COCCn1c(SCC(=O)c2c(C)[nH]c3ccccc23)nc2cc(C(=O)NC(C)C)ccc2c1=O	.	-15%	.	.	1.3%	12%	-21%[46.1 µM]	.
NC1CCN(c2cccc(Cl)n2)CC1	.	-21%	-9%	?	-1.1%&-0.3%	-2%&-8%	-7%	.
O=C(O)/C=C(\Oc1ccccc1)C1(O)CCCCC1	17%	-17%	-5%	.	.	.	.	1%
CCOc1ccc(NC(=O)C2CC(=O)N(c3cc(C)cc(C)c3)C2)cc1 (stereo not given)	-5%	-3%	-13%	?	6.3%	4%	8%	1%
COCc1c(C(=O)OCC(=O)N2c3ccccc3NC(=O)C2(C)C)oc2ccccc12	10%	25µM*	-7%	?	11%	2%	-8%	-13%
O=C(CN1C(=O)S/C(=C\c2ccccc2Cl)C1=O)NC1C=CS(=O)(=O)C1 (stereo not given)	0%	?	-13%	?	.	.	?	1%
Cc1ccc(C23CC4CC(CC(C(=O)NC(C)C(=O)O)(C4)C2)C3)cc1 (stereo not given)	-9%	3%	13%	21%	.	.	1%	2%
COc1cccc(NC(=O)CN(c2ccc(C)cc2)S(=O)(=O)c2c(C)nn(C)c2C)c1	-5%	-3%	-8%	-13%&-13%	-5.0%	?	1%	5%
COc1ccc(OCC(=O)Nc2cc(NC(=O)COc3ccc(OC)cc3)cc(C(=O)O)c2)cc1	21%	5%	-7%	.	.	.	.	-1%
COc1ccc(CCN(C)Cc2nc(Cc3ccc(OC)c(OC)c3)no2)cc1OC	-6%	?	-3%	.	.	.	.	0%
Cc1ccc(-c2nnn(CC(=O)N(CCCO)C(C(=O)NC3CCCC3)c3ccc(F)cc3)n2)o1 (stereo not given)	-19%	-2%	4%	3%	.	.	-4%	-1%
Cc1cccc(NC(=O)CN2C(=O)CSc3ccc(S(=O)(=O)N4CCCC4)cc32)c1C	.	-17%	.	.	-0.1%	-20%	16%[46.1 µM]	.
Cc1ccc(NN2C(=O)C=C(c3ccc(Cl)cc3)C2=O)cc1	?	40µM*	-215%	?	-2.4%	-5%	?	-32%
O=C(c1nc2ccccn2c1CNCCCn1ncc2ccccc21)N1CCOCC1	-6%	-14%	-2%	.	.	.	.	-1%
O=C1NC2(CCCCC2)N=C1c1ccc(Br)cc1	2%	18%	-103%	3%	3.0%	-2%	10%	-7%
Cc1ccc(NC(=O)c2csc(-c3ccccc3)c2C)cc1	9%	?	-2%	13µM*	-1.6%	-27%	6.5µM*	-7%
CC1CCCCN1CC(=O)Nc1sccc1C#N (stereo not given)	8%	10%	7%	1%	3.3%	-8%	13%	0%
Cn1c(=O)c2c(nc(N3CCCCCC3)n2CCSc2nc3ccccc3o2)n(C)c1=O	-11%	?	9%	.	-0.2%	?	.	4%
CC(=O)CC1(O)C(=O)Nc2ccccc21 (stereo not given)	5%	-14%	-1%	.	.	.	.	0%
C[C@H](NC(=O)c1ccc(Cl)cc1)C(=O)OCn1nnc2ccccc2c1=O	-27%	4%	.	-12%	.	.	11%	8%
COc1ccc(-c2nc(C)c(CCNC(=O)c3cccc(C)c3)s2)cc1OC	.	32%[activator]	.	.	-7.1%	?	-27%[46.1 µM]	.
COCCNC(=O)C(=O)NCC(c1ccc2c(c1)OCO2)N1CCOCC1 (stereo not given)	.	3%	.	.	0.2%	-8%	8%[46.1 µM]	.
COc1ccc(NC(=O)c2cccc(N3C(=O)C4C5CCC(C5)C4C3=O)c2)cc1 (stereo not given)	3%	?	0%	-19%	.	.	-15%	-3%
O=C(Cn1c(=O)c2c(ncn2Cc2ccccc2)n(Cc2ccccc2)c1=O)N1CCc2ccccc21	-18%	-22%	11%	1%	-1.3%	?	-6%	-7%
CC(=O)N/C(=C\c1ccccc1)C(=O)OCc1cc(C)ccc1C	12%	32%[activator]	4%	16%[46.1 µM]	.	.	-18%	3%
O=C(O)c1cccc(N(CCO)CCO)c1	10%	-12%	-69%	16%[46.1 µM]	.	.	6%[46.1 µM]	-1%
COc1ccc(NCc2cc3cc4c(cc3n(CC(=O)Nc3ccc(C)cc3C)c2=O)OCO4)cc1	.	1%	.	.	-7.3%	?	14%[46.1 µM]	.
COc1ccc(C(=S)N2CCN(c3ccccc3C)CC2)cc1OC	-5%	19%	.	?	.	.	?	.
CC(=O)Nc1ccc(SCC(=O)Nc2oc(C)c3c(C)n[nH]c(=O)c23)cc1	-12%	0%	.	?	.	.	-15%	-4%
Cc1cc(SCC(=O)NCc2ccc(F)cc2)nc(=O)[nH]1	.	4%	.	.	-0.4%	?	3%[46.1 µM]	.
CCN(CC(=O)Nc1c(F)cccc1F)C(=O)CCc1nc2cc(S(=O)(=O)N3CCOCC3)ccc2n1C	-3%	-12%	.	19%	.	.	4%	-2%
CCc1ccc(S(=O)(=O)Nc2cc3c(cc2N2CCOCC2)n(C)c(=O)c(=O)n3C)cc1	-7%	-1%&11%	5%	.	3.2%	?	3%[46.1 µM]	-1%
CC(C(=O)NC1CCCC1)N(c1ccc(Oc2ccccc2)cc1)S(C)(=O)=O (stereo not given)	5%	9%	-6%	?	.	.	-29%	0%
COC(=O)CCC(=O)Nc1nccs1	19%	-11%	1%	-3%&-3%[46.1 µM]	.	.	.	0%
COc1ccc(NC(=O)C(NC(=O)C2CCC(C)CC2)C(C)C)cc1 (stereo not given)	.	12%	.	-4%[46.1 µM]	-1.1%	5%	4%[46.1 µM]	.

Only Lassa entry inh, Cruzain noTriton and SARS PLP yeast, for 2 of the compounds above:
structure,Lassa entry inh,Cruzain noTriton,SARS PLP yeast
COc1ccc(C(=S)N2CCN(c3ccccc3C)CC2)cc1OC,?,.,.
CC(=O)Nc1ccc(SCC(=O)Nc2oc(C)c3c(C)n[nH]c(=O)c23)cc1,-15%,.,-4%

Later entries
SMILES	RE007 growth inh	2A StopGo	NS1 function inh	Marburg entry inh	Cruzain Triton	Cruzain noTriton	Lassa entry inh	SARS PLP yeast
CCCCn1c(-c2nn(C)cc2Cl)n[nH]c1=S	23%	0%	5%	4%	-3.8%	0%	10%	-4%
COc1ccc(NC(=O)Nc2ccon2)cc1OC	10%	3%	5%	-2%[46.1 µM]	.	.	4%[46.1 µM]	-7%
CCOc1ccc(CNC(=O)C2CCCN(S(C)(=O)=O)C2)cc1OC (stereo not given)	8%	.	-1%	12%	3.9%	5%	2%	-1%
COC(=O)C(O)(c1ccc(N(C)C(=O)OC(C)C)cc1)C(F)(F)F (stereo not given)	9%	-25%	5%	23%	-1.5%	-7%	?	-19%
O=C(NCCS(=O)(=O)NC1CCCCC1)c1ccccc1	-4%	3%	.	-8%	.	.	4%	3%
CC1CCN(S(=O)(=O)c2ccc3c(c2)oc(=O)n3CC(=O)NCc2ccc(F)cc2)CC1	.	-15%	.	?	-11%	?	-15%[46.1 µM]	.
CSc1ccc(NC(=O)NCc2ccccc2)cc1	-8%	-23%	-4%	27%	.	.	?	0%
Cc1ccc(-n2nc3c(=O)n(CC(=O)NCc4cccs4)nc(C)c3c2C)cc1	9%	-14%	10%	13%[46.1 µM]	.	.	-5%[46.1 µM]	1%
O=C(O)C1CCCN1S(=O)(=O)c1ccc2c(c1)CCC2 (stereo not given)	9%	.	-2%	0%	3.6%	-7%	-15%	-2%
Cc1[nH]c2ccccc2c1SCC(=O)N1CCN(c2ccccc2)CC1	-6%	-11%	-6%	.	-4.6%	-5%	.	-8%
CCc1ccc(N/C(SCc2cccc(F)c2)=C(/C#N)C(=O)NCc2ccco2)cc1	1%	-6%	?	21µM*	2.1%	?	?	-8%
CCOC(=O)C1C(=O)CC(C)(O)C(C(=O)OCC)C1/C=C/c1ccccc1 (stereo not given)	-13%	-28%	0%	-13%	3.3%	0%	2%	-5%
COC(=O)c1ccc(Cn2nnc3sc4c(c3c2=O)CCC(C)C4)cc1 (stereo not given)	.	5%	.	?	-1.3%	2%	4%[46.1 µM]	.

Source: PubChem
